RecA intein inh = Mtb RecA intein splicing inhibitors, primary screen, biochemical, fluorescence, HTS | inhibition, %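 (about 9 µM by stock and volumes)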 | cell-free RecA intein splicing | 0.75% of 290,000 active | Protein RecA (Mycobacterium tuberculosis (strain ATCC 25618 / H37Rv)), P9WHJ3 | AID 2221, 2009; in the data active = inhibition above about 30%;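 note: 0% = vehicle wells and 100% = reference inhibitor control wells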
Target sequence (P9WHJ3 whole entry, looked up): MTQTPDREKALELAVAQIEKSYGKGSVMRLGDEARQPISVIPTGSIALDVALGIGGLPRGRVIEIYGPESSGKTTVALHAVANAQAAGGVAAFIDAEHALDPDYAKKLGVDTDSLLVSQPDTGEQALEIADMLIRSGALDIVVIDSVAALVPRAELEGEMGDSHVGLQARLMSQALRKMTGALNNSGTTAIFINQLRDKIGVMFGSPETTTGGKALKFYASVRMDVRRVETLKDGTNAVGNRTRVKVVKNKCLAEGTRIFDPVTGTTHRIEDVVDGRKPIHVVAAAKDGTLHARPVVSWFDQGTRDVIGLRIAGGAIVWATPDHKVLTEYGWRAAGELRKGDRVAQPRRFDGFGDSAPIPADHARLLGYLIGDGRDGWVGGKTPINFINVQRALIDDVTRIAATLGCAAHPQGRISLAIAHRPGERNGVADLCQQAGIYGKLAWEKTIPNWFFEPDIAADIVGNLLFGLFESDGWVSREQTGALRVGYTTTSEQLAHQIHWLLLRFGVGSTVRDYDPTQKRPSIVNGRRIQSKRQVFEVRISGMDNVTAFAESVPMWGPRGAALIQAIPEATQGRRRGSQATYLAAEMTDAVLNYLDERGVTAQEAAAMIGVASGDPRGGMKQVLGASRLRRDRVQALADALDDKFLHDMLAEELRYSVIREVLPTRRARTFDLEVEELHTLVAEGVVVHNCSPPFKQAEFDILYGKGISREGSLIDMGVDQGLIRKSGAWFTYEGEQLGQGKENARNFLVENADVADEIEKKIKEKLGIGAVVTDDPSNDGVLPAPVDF
Arbovirus anti = antivirals against arbovirus infection, primary screen, cell-based, full library, 10K replicate subset. arbovirus infection cell-based antiviral screen. inhibition, % at 10 µM. 0.37% of 200,000 active. AID 1251, 2008;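 active = inhibition from about 30%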;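 note: bluetongue infection of BSR cells; cell survival read as ATP light after 72 h; 0% = infected wells without compound and 100% = uninfected wells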
Mtb H37Rv = M. tuberculosis H37Rv growth inhibitors, H37Rv strain (AID 1626); M. tuberculosis H37Rv growth inhibition; higher % means a stronger effect; 0.95% of 220,000 active; inhibition, % at 10 µM, or IC50 in µM where a hit was titrated;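 active = confirmed in a dose series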;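 note: bacteria incubated seven days before Alamar blue readout; 0% = bacteria only wells and 100% = bacteria with antibiotic wells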
YopH inh = YopH tyrosine phosphatase inhibitors, primary screen, biochemical, fluorescence Ex485/Em525. inhibition, %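 (about 10 µM by stock and volumes)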. AID 898, 2007. 0.16% of 140,000 active;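 active = inhibition of 50% or more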;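 note: controls were vehicle for no effect and minimum signal wells for full effect; inactives centre near -20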
Mtb bLac sens = beta-lactam sensitization of Mtb H37Rv, H37Rv; M. tuberculosis H37Rv growth with meropenem, percent inhibition; hits of this screen are not shown here; inhibition, % at 25 µM; 0.27% of 330,000 active; AID 434955, 2010;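 active = about 74% or more and at least 40 points above the plate without the antibiotic, then above 30% in a dose series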;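 note: growth measured after seven days incubation then overnight dye step; 0% = bacteria only wells and 100% = bacteria with antibiotic; twin plates without the antibiotic show which effects depend on it; some results filed as inactive read as strong as hits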
Arbovirus anti repeat = second read-out of Arbovirus anti, no call of its own (marks repeat the call); inhibition, %; measured here: 10K subset replicate screen; many hits read low in the repeat;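 first of two repeat runs on a subset; 0% = infected and 100% = uninfected wells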
Active calls of the source: *; . = no result given. These rows are one share of the data; count on the stated rates, not on these rows.

SMILES | RecA intein inh | Arbovirus anti | Mtb H37Rv | YopH inh | Mtb bLac sens | others
O=C(NC(=S)Nc1nc(-c2cccc3ccccc23)cs1)c1cc2ccccc2o1 | 0.6 | -14 | 1% | -15 | 11
CC(=O)OCP(C)(=O)COC(C)=O | 4.1 | 2 | -1% | -11 | -5
O=C(COc1ccc(Cl)cc1)Nc1cccc(S(=O)(=O)NC2=NCCCCC2)c1 | 2.4 | . | . | . | -10
CC(C)(C)c1ccc(C(=O)N2CCC(C(=O)NCc3ccncc3)CC2)cc1 | -3.3 | 4 | 3% | 15 | 1
CSCc1c(C(=O)NC2CCCc3ccccc32)oc2ccccc12 (stereo not given) | -1.0 | 0 | -6% | -14 | -8
Cc1nc2sccn2c(=O)c1S(=O)(=O)NCCc1ccc(Cl)cc1 | -2.0 | . | . | . | 1
Cc1ccc(NC(=O)c2cc([N+](=O)[O-])ccc2N2CCOCC2)cc1C | 10 | . | . | . | -9
C=CC[C@@H]1C=C[C@H](O/N=C/c2ccc(C(=O)N3[C@H](c4ccc(C)cc4)[C@@H](C)CC[C@H]3C(=O)OC)cc2)[C@@H](CO)O1 | 9.1 | -29 | . | -17 | -17
CC(C)(C)NC(=O)/C=C/c1ccc(C(F)(F)F)cc1 | 0.6 | -3 | -3% | -26 | 4
COc1ccc(N=C2SC(C(N)=O)CC(=O)N2CCc2ccc(OC)c(OC)c2)cc1 (stereo not given) | 1.6 | 11 | -2% | 14 | -7
O=C1CSC(c2cccnc2)N1c1ccccc1 (stereo not given) | 8.8 | . | -6% | . | -3
O=C(O)COc1cnc2ccccc2n1 | 5.9 | 5 | 7% | . | -2
Cc1nc(NC(=O)c2ccccc2O)sc1C | -1.3 | . | . | . | -1
NCC(O)COc1ccc2c(c1)OCO2 (stereo not given) | -0.7 | 0 | -1% | 6 | 2
Cc1ccc(CN(CC(O)COc2cccc3[nH]cc(C)c23)C(C)(C)C)cc1 (stereo not given) | -1.0 | . | . | . | 2
Cc1cccc(OC(C)C(=O)Nc2ccccc2C(=O)N2CCCCC2)c1 (stereo not given) | -0.7 | . | . | . | -16
O=C(NCCc1c[nH]c2ccccc12)/C(=C\c1cccnc1)NC(=O)c1cccs1 | 2.7 | -11 | 0% | -28 | 3
Cc1coc2c(C)c3oc(=O)c(CCC(=O)N4C[C@H]5C[C@@H](C4)c4cccc(=O)n4C5)c(C)c3cc12 | 1.4 | . | . | . | -1
CC(=O)c1sc(NC(=O)c2ccccc2F)nc1C | 0.8 | -3 | -5% | -13 | -3 | Arbovirus anti repeat=-9
CNC(=S)N/N=C(\C)c1ccc2c(c1)OCCO2 | -0.9 | -7 | 1% | -34 | 16
CCCCn1c(N)c(N(CCOC)C(=O)CCNC(=O)c2ccccc2Cl)c(=O)[nH]c1=O | -3.6 | . | . | . | 2
O=C1NC(=O)C(=Cc2csc3ccccc23)C(=O)N1 | -1.6 | . | 16% | . | 3
Cc1ccc(S(=O)(=O)N2CCN(C(=O)COC(=O)COc3ccccc3)CC2)cc1 | -0.8 | 2 | 2% | -23 | 8
COc1ccc(C2CC3(O)NC(=O)C(C#N)(C3C)C2(C#N)C#N)cc1 (stereo not given) | -0.4 | . | -7% | . | -9
CS(=O)(=O)N1CCN(C(=O)c2ccncc2)CC1 | -2.8 | 1 | 8% | -23 | -8
COc1cccc(F)c1C(C[N+](=O)[O-])c1c(N)n(C)c(=O)n(C)c1=O (stereo not given) | 0.2 | . | 49% | . | 100
Cc1cc(C)n(-c2cc(Cl)ccc2[N+](=O)[O-])n1 | 0.3 | -6 | 4% | . | -9
Cc1c(OCC(=O)NCc2cccnc2)ccc2c3c(c(=O)oc12)CCCC3 | 0.1 | . | . | . | 3
CS(=O)(=O)c1nc(S(=O)(=O)c2ccc(Cl)cc2)c(NCCCn2ccnc2)s1 | -6.1 | . | . | . | -5
S=C(Nc1ccc2nc(-c3ccccn3)c(-c3ccccn3)nc2c1)N1CCCCCC1 | -36 | -1 | -2% | . | 3
Cc1cc(NC(=O)Cn2c(=O)oc3ccc(Cl)cc32)no1 | 1.3 | . | . | . | 7
O=C(CSc1nnnn1-c1cccc(Cl)c1)Nc1ccc2c(c1)CCC2 | -0.5 | -3 | -4% | -15 | 1
Cn1c(=O)c2c(nc(SCc3cccnc3)n2Cc2ccccc2)n(C)c1=O | 1.7 | 0 | -9% | -30 | 13
CCOC(=O)Cn1c(COc2ccccc2OC)[n+](C)c2ccccc21 | -0.2 | . | . | . | 1
CN(C)c1nc(N(C)C)nc(N(C#N)CN2C(=O)c3ccccc3C2=O)n1 | -0.7 | -1 | -5% | -13 | -5
COc1cc(Cl)c(C)cc1NC(=O)c1ccc2c(SCC(=O)O)c3c(nc2c1)CCCC3 | 5.2 | 15 | -8% | . | 33
CCOC(=O)c1[nH]cnc1C(=O)Nc1ccccn1 | -0.8 | 2 | 6% | -43 | -1
Cc1cc(C)cc(NC(=O)C(=O)NCC2CCCN2S(=O)(=O)c2cccs2)c1 (stereo not given) | 1.7 | . | . | . | -14
Cc1cccc(NC(=O)c2c(C)nn(-c3ccccc3)c2Cl)c1 | 9.0 | -17 | -6% | . | -2
Cc1cc(C(=O)CSc2ccccc2)cc(C)c1O | 3.2 | . | . | . | 3

Two entries picked at random from the list so far, as already listed:
SMILES | RecA intein inh | Arbovirus anti | Mtb H37Rv | YopH inh | Mtb bLac sens | others
O=C(COc1ccc(Cl)cc1)Nc1cccc(S(=O)(=O)NC2=NCCCCC2)c1 | 2.4 | . | . | . | -10
O=C1CSC(c2cccnc2)N1c1ccccc1 (stereo not given) | 8.8 | . | -6% | . | -3

(cont.)
SMILES | RecA intein inh | Arbovirus anti | Mtb H37Rv | YopH inh | Mtb bLac sens | others
COc1ccccc1NS(=O)(=O)c1cccc(NC(=O)NC2CCCCC2)c1 | 4.9 | -1 | 0% | -24 | -2
CC(=O)NCCn1c(SCC(=O)c2ccccc2)nc2ccccc2c1=O | -2.6 | -8 | 9% | -38 | 3
CSc1ccccc1NC(=O)CN(C)CC(=O)Nc1ccccc1N1CCOCC1 | 2.0 | 4 | -6% | . | -2
O=[N+]([O-])c1ccc(N/N=C/c2cccc(O)c2O)cc1 | -0.8 | . | . | . | 97
Cc1cc(C(=O)NC(=S)Nc2ccccc2N2CCCC2)ccc1[N+](=O)[O-] | -0.9 | -16 | 72% | -27 | 10
COc1ccc(S(=O)(=O)N2CCOC2CNC(=O)C(=O)NCCc2ccccc2)cc1 (stereo not given) | -4.2 | . | . | . | 0
COc1ccccc1N(Cc1ccccc1)S(=O)(=O)c1cccc(C(=O)Nc2ncccc2C)c1 | 2.8 | . | . | . | -1
COC(=O)c1ccccc1NC(=O)COc1ccccc1[N+](=O)[O-] | -1.9 | -3 | 10% | . | 6
O=C1CC(c2cccc(Cl)c2)C(n2cncn2)C(=O)C1C1NCCc2ccccc21 (stereo not given) | 2.1 | 13 | -5% | -19 | -7
CN(Cc1cccs1)C(=O)CCCc1c[nH]c2ccccc12 | -0.1 | -7 | 4% | . | 9
CSc1cnn(-c2ccccc2)c(=O)c1SC | 2.4 | 3 | -3% | -52 | -4
O=C(NC(=S)NCc1ccccc1)c1ccccc1F | -2.6 | 3 | 0% | -43 | -5
COc1ccc(S(=O)(=O)NCc2cc(-c3ccccc3Cl)no2)cc1 | 2.9 | 19 | 12% | . | 1
N#C/C(=C/c1ccc(F)cc1)C(N)=S | -12 | 5 | 1% | . | -2
COc1cc(/C=C2/N=C(C3CCCCC3)OC2=O)cc(OC)c1OC | -5.9 | -1 | -4% | -20 | 59
CCOc1ccc(-n2ccnc2SCC(=O)N2CCCc3ccccc32)cc1 | 1.3 | 9 | 5% | -26 | 8
Cc1ccc(OCC(=O)n2nc(C)cc2C)c(Br)c1 | 7.5 | 6 | 0% | 26 | -1 | Arbovirus anti repeat=0
O=C(Nc1cccnc1)/C(N=Nc1c(Cl)cccc1Cl)=C(\O)c1ccccc1 | -6.8 | -12 | 15% | -12 | -4
CCc1nnc(NC(=O)Cc2ccc(OC)c(OC)c2)s1 | 2.2 | 4 | -13% | . | 0
CCn1nc(C)c(/C=N/NC(=O)c2c[nH]c3ccccc23)c1C | -3.4 | -2 | 3% | -21 | 4
CC(C)NC(=O)C(=O)NCCCOC(C)C | 0.1 | 2 | -4% | -27 | -5
O=C(NCc1nnc2c(C(F)(F)F)cc(Cl)cn12)c1cccs1 | -2.2 | . | . | . | -4
COc1ccc(Cl)cc1C(=O)NNC(=O)c1cccc([N+](=O)[O-])c1 | -1.2 | -7 | 1% | . | -5
BrC(=C\c1ccccc1)/C=N/N1CCN(c2ccccn2)CC1 | -3.1 | 3 | -3% | -28 | .
CCC1(C)CN(S(=O)(=O)OCC(Cl)(Cl)Cl)C(=O)N1 (stereo not given) | 1.4 | . | . | . | 3
COc1ccc(-c2cc(C(=O)OCC(=O)N(C)C3CCS(=O)(=O)C3)c3ccccc3n2)cc1OC (stereo not given) | -2.1 | -4 | 2% | . | -3
COc1ccccc1N1CCN(Cc2cc3c(cc2O)OCO3)CC1 | -2.5 | . | . | . | 3
CC(C(=O)Nc1ccccn1)c1ccccc1 (stereo not given) | 1.7 | . | . | . | -3
O=C(Nc1ccc(F)cc1)C1CC(=O)N(Cc2ccco2)C1 (stereo not given) | 2.2 | . | . | . | -2
CC(=O)N/N=C/C1=CCC2CC1C2(C)C (stereo not given) | -1.8 | 6 | -4% | . | 1
CCOC(=O)NCc1ccc(S(=O)(=O)Nc2ccc(C)cc2)cc1 | -1.6 | -1 | -6% | -13 | -4
Cc1nc2sc(-c3ccccc3)cc2c(=O)[nH]1 | 3.5 | -5 | -8% | -7 | -2
CCn1nc(C)c(CNCc2cn[nH]c2-c2cc3ccccc3o2)c1C | -0.3 | . | -6% | . | 1
CC(=O)c1ccc(NC(=O)C(C)OC(=O)C(C)Oc2cccc(C)c2)cc1 (stereo not given) | -0.8 | 11 | -3% | -17 | -3
CCCCCC(=O)Nc1ccc(-c2csc(C)n2)cc1 | -1.0 | -12 | 46µM* | -21 | 93
COc1ccc(NC2=CC(=O)CC(c3ccccc3)C2)c(OC)c1 (stereo not given) | 1.9 | -16 | -7% | -18 | -8
Cn1c(=O)[nH]c(=O)c2c1nc(SCC(=O)Nc1ccccc1)n2Cc1ccccc1 | 1.4 | 7 | 5% | -17 | -3 | Arbovirus anti repeat=7
CCCc1c(C(=O)N/N=C/c2cccc3ccccc23)nnn1-c1nonc1N | -0.2 | . | . | . | -1
Cc1cc(F)ccc1S(=O)(=O)NCC(c1ccc2c(c1)OCO2)N1CCOCC1 (stereo not given) | -1.2 | . | . | . | 0
CCC(C)c1ccc(C(CC)NC(=O)C2CCCO2)cc1 (stereo not given) | -0.1 | . | . | . | -10

Ordered by molecular weight (rising): part of the list above
SMILES | RecA intein inh | Arbovirus anti | Mtb H37Rv | YopH inh | Mtb bLac sens | others
NCC(O)COc1ccc2c(c1)OCO2 (stereo not given) | -0.7 | 0 | -1% | 6 | 2
Cc1cc(NC(=O)Cn2c(=O)oc3ccc(Cl)cc32)no1 | 1.3 | . | . | . | 7
COc1ccc(C2CC3(O)NC(=O)C(C#N)(C3C)C2(C#N)C#N)cc1 (stereo not given) | -0.4 | . | -7% | . | -9
CN(C)c1nc(N(C)C)nc(N(C#N)CN2C(=O)c3ccccc3C2=O)n1 | -0.7 | -1 | -5% | -13 | -5
CC(=O)c1ccc(NC(=O)C(C)OC(=O)C(C)Oc2cccc(C)c2)cc1 (stereo not given) | -0.8 | 11 | -3% | -17 | -3
Cc1c(OCC(=O)NCc2cccnc2)ccc2c3c(c(=O)oc12)CCCC3 | 0.1 | . | . | . | 3
Cc1cc(F)ccc1S(=O)(=O)NCC(c1ccc2c(c1)OCO2)N1CCOCC1 (stereo not given) | -1.2 | . | . | . | 0

Next section:
SMILES | RecA intein inh | Arbovirus anti | Mtb H37Rv | YopH inh | Mtb bLac sens | others
Cc1ccc(C)c(NC(=O)COc2cccc3c2CCN(Cc2ccccc2)C3=O)c1 | 2.6 | -2 | . | -26 | 4
Cc1ccc(C)c(S(=O)(=O)N2CCCOC2CNC(=O)C(=O)NCCc2ccccc2)c1 (stereo not given) | -2.5 | . | . | . | -21
C#CCOC(=O)Nc1cccn(Cc2c(Cl)cccc2Cl)c1=O | 11 | -16 | 6% | -27 | -1
Cc1cccc(COCC(Cc2ccccc2)N2CCN(C(=O)c3cccc(Cl)c3)CCC2=O)c1 (stereo not given) | 13 | -25 | 8% | -18 | -5
CCC(C)[C@H](NC(=O)N1CC(=O)Nc2ccccc21)C(=O)N[C@H](Cc1c[nH]c2ccccc12)C(=O)O (stereo not given in full) | 1.6 | . | . | . | -3
COc1ccc(CCNC(=O)c2ccc(CNc3nc(=S)[nH]c4ccccc34)cc2)cc1OC | -2.1 | -5 | -7% | . | -1
COc1cccc(NC(=O)C2CCN(C(=O)[C@@H]3Cc4ccccc4CN3C(=O)OC(C)(C)C)CC2)c1 | 9.0 | . | . | . | -1
COc1ccc(-c2nnc(SCc3nc4ccccc4c(=O)[nH]3)o2)cc1 | 0.2 | . | -7% | . | -2

Screening results (PubChem)
